# Screening results deposited in PubChem by several laboratories.
# T cruzi inh = blocks replication of Trypanosoma cruzi | 1.4% of 300,000 active | T. cruzi beta-gal in NIH3T3, luminescence, 90 h | inhibition, % (test concentration not listed);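 active = mean inhibition across valid replicates above about 55%, limit read from the data; inconclusive = mean below that limit but half or more replicates reach it; inactive = mean below it, under half of replicates reach it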;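 also: signal also drops with host cell toxicity which is not excluded here; 0% = plate median of DMSO wells and 100% = zero luminescence signal; higher percent means less beta-gal luminescence so fewer parasites; stock transfer was 50 nL into about 50 µL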
# Vif TR-FRET = inhibitors of Vif binding to APOBEC3G peptide, primary screen, biochemical, TR-FRET, GST-Vif 1-94, biotin-A3G peptide, dose response retest (AID 1117319); TR-FRET GST-Vif / biotin-A3G peptide binding; higher % means a stronger effect; test concentration not given here; strong numbers were not always called active; inhibition, %; hits with a dose series show IC50 in µM; 0.57% of 260,000 active;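 active = above the screen mean plus three standard deviations and confirmed in dose response; inconclusive = results disagree or hit not tested in dose response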;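 also: Vif residues 1-94 fused to GST binding biotinylated APOBEC3G peptide 110-148; 0% = full assay without inhibitor and 100% = GST in place of GST-Vif; retest series ran down from 100 µM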
# A1 inh = inhibitors of the anti-apoptotic protein A1, read as caspase activation; MEF A1-2A-BIM cells, Caspase-Glo 3/7 luminescence, 3 h; percent of clofoctol response, vehicle zero; 0.066% of 330,000 active; AID 2462; caspase activation, % (no concentration beside the values);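 active = over half of replicate activation scores above 10%, or exactly half above 10 with the replicate mean above 10; inconclusive = replicate mean below 10 yet half the replicates above 10; inactive = over half of replicates below 10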;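 also: wells of about 30 µL received 50 nL stock; many hits fall short of the cut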
# MLL AF4-AF9 inh = inhibitors of human MLL-AF4/AF9 interaction | P42568 | AlphaScreen, biotin-AF4 peptide binding to FLAG-AF9 | inhibition, % at 10 µM | 0.47% of 350,000 active | AID 651704;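 active = every replicate reaching a set inhibition limit, whatever the replicate mean, cut at about 25% in these data; inconclusive = mean inhibition reaches that limit but some replicates miss it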;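 also: 0% = plate neutral control median and 100% = total signal loss; the record names both 10 and 1 µM as test concentration; the first replicate is given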
# Target sequence (P42568 whole entry, looked up): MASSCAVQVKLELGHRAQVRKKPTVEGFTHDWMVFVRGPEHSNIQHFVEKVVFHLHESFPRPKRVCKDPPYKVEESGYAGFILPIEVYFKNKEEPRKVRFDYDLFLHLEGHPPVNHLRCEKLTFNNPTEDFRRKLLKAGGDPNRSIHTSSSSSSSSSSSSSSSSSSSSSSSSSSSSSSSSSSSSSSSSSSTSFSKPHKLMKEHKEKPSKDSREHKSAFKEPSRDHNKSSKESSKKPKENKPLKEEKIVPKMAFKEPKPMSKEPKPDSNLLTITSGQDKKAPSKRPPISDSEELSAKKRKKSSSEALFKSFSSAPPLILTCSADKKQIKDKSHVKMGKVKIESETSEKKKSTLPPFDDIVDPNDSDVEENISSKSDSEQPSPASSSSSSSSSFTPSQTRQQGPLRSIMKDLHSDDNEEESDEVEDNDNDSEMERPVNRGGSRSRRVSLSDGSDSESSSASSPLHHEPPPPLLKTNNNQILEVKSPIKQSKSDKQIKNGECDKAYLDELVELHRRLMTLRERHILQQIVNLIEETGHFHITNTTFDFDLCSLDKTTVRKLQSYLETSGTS
# RanGTP-Imp inh = inhibitors of RanGTP-importin-beta interaction, primary screen, biochemical, FRET, CFP-Ran, YFP-importin-beta, homogeneous; cell-free CFP-Ran/YFP-importin-beta FRET ratio; 1.1% of 300,000 active; inhibition, % (no concentration beside the values);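 active = most replicates above 15%; inconclusive = exactly half above 15%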;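 also: 0% = DMSO wells and 100% = Ran loaded with GDP instead of GTP; wells of about 40 µL received 100 nL stock; the first replicate is given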
# Beta apoptosis = blocks beta cell apoptosis. 0.8% of 300,000 active. INS-1E cytokine-induced death, ATP luminescence, 48 h; percent of positive-control rescue, neutral wells zero. protection from apoptosis, % (test concentration not listed);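 active = all replicates at 75% or more, or half of them and the mean; inconclusive = half reach 75% but not the mean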;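 also: 0% = cytokine-treated negative control wells and 100% = positive control rescue; higher means more ATP so stronger rescue from cytokine killing; wells of about 40 µL received 100 nL stock; the first replicate is given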
# Calb FLC = affects C. albicans growth with fluconazole; C. albicans CaCi-2 (fluconazole-resistant clinical isolate) + fluconazole, Alamar Blue growth, 48 h; growth inhibition, % (no concentration beside the values); 0.57% of 300,000 active; AID 1979;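 active = most replicates above 75%; inconclusive = exactly half above 75%; inactive = most below 75%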;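 also: all wells also contain fluconazole at 8 µg/ml as a sub-toxic cotreatment; 0% = median of DMSO wells and 100% = median of geldanamycin control wells; wells of about 8 µL received 7.5 nL stock; the first replicate is given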
# LANA-H2A inh = blocks KSHV LANA binding to histone H2A/H2B | Q9QR71 | cell-free LANA-H2A/H2B peptide, fluorescence polarization | inhibition, % (concentration not given with the values) | 0.6% of 320,000 active | AID 2629; in the data active = inhibition mostly above about 10%, no sharp cut-off; inactive = mostly below about 6.7%;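 also: stock transfer was 7.5 nL into about 10 µL; 0% = median of vehicle wells and 100% = median of positive control wells; one replicate is shown; the record names a cut of 25% in any replicate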
# * marks the source's active call; other numbers are inactive results; u = inconclusive; x = no result given; & = joins results of further samples.
# Screens in order – T cruzi inh	Vif TR-FRET	A1 inh	MLL AF4-AF9 inh	RanGTP-Imp inh	Beta apoptosis	Calb FLC	LANA-H2A inh
- COC(=O)C1=C(C)N(C)C(=S)NC1c1ccc(Cl)cc1 (stereo not given)
  -14	2%	0.3	-5.9	-1.4	7	-26	-5.1
- COc1ccc(C(C(=O)NCC2CCCO2)N(C(=O)Cn2nnc3ccccc32)c2ccc(NC(C)=O)cc2)cc1OC (stereo not given)
  -8	x	-0.3	-1.8	5.8	-2	1	1.4
- CCOc1ccc(CCNC(=O)CCCn2nc(C)c3c(C)n(-c4ccccc4)nc3c2=O)cc1
  7	x	0.5	-1.1	3.3	2	-8	6.9
- Cc1ccc(C(=O)NCCCNC(=O)COc2ccccc2Cl)cn1
  -13	x	0.1	-0.7	-1.0	-2	-7	3.0
- O=[N+]([O-])c1ccc2nc(SCc3cn4cccnc4n3)[nH]c2c1
  -4	18%	1.0	-0.4	8.4	-5	1	4.2
- CCCn1c(NC(=O)c2ccc(Br)cc2)nc2ccccc21
  46	-47%	1.1	x	-1.3	18	1	-1.6
- CS(=O)(=O)NC1c2cccc3cccc(c23)C1N1CCOCC1 (stereo not given)
  -11	-3%	0.0	2.7	0.8	3	6	-3.2
- NC(=O)CC(NC(=O)c1ccccc1)c1ccc(NCCc2ccc(Cl)cc2)c([N+](=O)[O-])c1 (stereo not given)
  -19	x	-0.3	2.6	-7.9	-2	0	-0.7
- CCOC(=O)c1c(NC(=O)CN2C(=O)NC3(CCCC3)C2=O)sc(C)c1CC
  14	3%	-0.6	9.6	1.7	-1	-5	2.4
- COC(=O)CNC(c1ccccc1)c1cc(Br)ccc1N (stereo not given)
  9	-10%	1.1	8.6	-1.1	-6	20	-3.0
- COc1ccc2cc(-c3nc4ccccc4n3C)c(=O)oc2c1
  -23	-19%	-1.1	-8.4	44*	0	-5	-6.1
- COc1ccc(N(Cc2ccccc2)S(=O)(=O)c2ccc(C)cc2)cc1
  21	1%	0.8	-3.4	4.6	-2	5	0.6
- COc1ccc(NC(=O)CCNS(=O)(=O)c2ccc(C)c(C)c2)cc1OC
  -9	x	0.2	2.3	2.2	-11	-1	-1.8
- Cc1cc(NC(=O)c2cc(-c3ccccn3)nc3ccc(Br)cc23)no1
  9	-134%	1.4	-2.6	4.9	28	25	5.0
- S=C(Nc1ccc(Cl)cc1)N1CCCC1
  -7	-6%	-0.4	3.4	-0.3	-8	-1	-0.9
- COc1ccc(-c2cc3cc(-c4cc(OC)c(OC)c(OC)c4)ccc3o2)cc1
  x	x	0.1	-2.8	x	-1	x	1.5
- CCCNC(=S)N1CCC(NC(=O)Nc2ccc(C)cc2)CC1
  -8	x	0.0	-0.9	0.6	4	-1	2.8
- NC(=O)CSc1nc(-c2ccccc2)c(-c2ccccc2)o1
  7	5%	-0.2	x	0.4	-3	-9	-0.1
- COc1ccccc1NS(=O)(=O)c1cc(-c2cc(C)no2)ccc1OC
  30	x	-0.6	-0.2	-0.8	-2	10	-2.5
- CCCN(c1ccc(C(C)C)cc1)S(=O)(=O)c1c(C)[nH]c(=O)[nH]c1=O
  -5	8%	-1.5	6.7	6.5	5	42	3.3

# New compounds follow.
# Screens in order – T cruzi inh	Vif TR-FRET	A1 inh	MLL AF4-AF9 inh	RanGTP-Imp inh	Beta apoptosis	Calb FLC	LANA-H2A inh
- Cn1c(NC(=O)c2ccccc2F)cc(=O)n(C)c1=O
  -13	0%	0.5	-10	-1.3	2	5	2.1
- CCOC(=O)C(Cc1ccccc1)C(=O)Nc1nccs1 (stereo not given)
  -11	u	0.2	x	-1.7	4	-20	6.9
- CNC(=O)C1CC(=O)N(c2ccc(F)c(Cl)c2)C1 (stereo not given)
  -15	u	0.2	x	-1.6	-6	-5	5.3
- COC(=O)/C(=N\Nc1ccc(Cl)cc1)Sc1nnc(-c2ccc(OC)cc2)n1C
  18	x	0.1	2.0	1.0	-3	84*	1.9
- COC(=O)C1=C(C)N(C(C)C)C(=O)C1(NC(=O)C1CCCCC1)C(F)(F)F (stereo not given)
  -10	-7%	0.4	-6.6	2.6	-1	-5	-7.5
- O=C(CCc1nnc2n(Cc3ccccc3)c(=O)c3ccccc3n12)NCCN1CCOCC1
  -1	x	-0.4	-1.9	-0.8	-4	-1	-0.2
- O=C(Nn1cc(C(=O)N2CCN(c3ccccc3F)CC2)c2ccccc2c1=O)c1cnccn1
  18	-4%	-1.2	x	-0.5	4	41	1.8
- Cc1nc(C)n(CC(O)COc2ccc3ccccc3c2)n1 (stereo not given)
  -18	-1%	0.6	x	-0.5	1	-7	-3.3
- CCn1cnc2c1c(=O)n(CC(=O)Nc1ccc3c(c1)OC(F)(F)O3)c(=O)n2Cc1ccccc1
  34	1%&8%	0.5	x	1.9	-2	3	-0.9
- C/C(=N\NC(=O)c1cccc2ccccc12)c1cccs1
  -10	-7%	0.4	-0.1	-4.5	-8	3	5.7
- COc1ccc(/C=C(\C#N)C(=O)Nc2ccc3[nH]c(=O)[nH]c3c2)cc1
  -6	12%	-0.1	-0.9	1.9	-3	-3	-1.4
- CCCn1c(N)c(C(=O)CSc2nnc(Cc3cccs3)n2C2CC2)c(=O)n(C)c1=O
  x	-1%	0.4	-1.5	x	-4	x	-0.3
- Cc1cc(C)n(CCC(=O)N=Nc2c(O)[nH]c3ccc(Br)cc23)n1
  -1	0%	-0.8	-1.4	-4.0	1	-2	-3.3
- O=C(Cn1c2c(c(=O)n3ncnc13)CCC2)N/N=C/c1ccc(Cl)cc1
  -10	-8%	0.5	-6.4	5.1	x	-7	-2.6
- CCOc1ccc(-c2nnn(CC(=O)Nc3cccc(OC)c3)n2)cc1OCC
  0	-3%	0.0	x	3.9	-4	-24	5.9
- CC(C)Oc1ccc(/C=N/NC(N)=S)cc1
  28	x	-0.2	x	-1.3	1	2	1.5
- Cc1ccc(CN2CCN(/N=C/c3cccnc3)CC2)c(C)c1
  11	11%	0.2	20	4.2	-3	15	-4.2
- COc1ccc(Cl)cc1NC(=O)CN1CCC(NC(=O)C2CC2)CC1
  -11	-9%	0.8	-0.3	3.7	8	5	-4.1
- Cc1ccc(NC(=O)CCC(=O)NNC(=S)Nc2ccccc2)c(C)c1
  -13	-6%	0.3	-2.0	-1.5	-2	-19	-2.1
- COc1ccc(Cn2c(=O)[nH]c3cc(C(=O)N4CCN(c5ccc(OC)cc5)CC4)ccc3c2=O)cc1
  2	x	1.4	x	0.1	-2	-6	-1.7

# Taken from above.
# Reading for `CCOc1ccc(-c2nnn(CC(=O)Nc3cccc(OC)c3)n2)cc1OCC` in Calb FLC: -24
# Reading for `CNC(=O)C1CC(=O)N(c2ccc(F)c(Cl)c2)C1` (stereo not given) in A1 inh: 0.2
# Reading for `Cc1nc(C)n(CC(O)COc2ccc3ccccc3c2)n1` (stereo not given) in Beta apoptosis: 1
# Reading for `Cc1cc(C)n(CCC(=O)N=Nc2c(O)[nH]c3ccc(Br)cc23)n1` in MLL AF4-AF9 inh: -1.4
# Reading for `CCOC(=O)C(Cc1ccccc1)C(=O)Nc1nccs1` (stereo not given) in Calb FLC: -20
# Reading for `O=C(Nn1cc(C(=O)N2CCN(c3ccccc3F)CC2)c2ccccc2c1=O)c1cnccn1` in T cruzi inh: 18
# Reading for `CCCn1c(N)c(C(=O)CSc2nnc(Cc3cccs3)n2C2CC2)c(=O)n(C)c1=O` in Vif TR-FRET: -1%

# Carrying on.
# Screens in order – T cruzi inh	Vif TR-FRET	A1 inh	MLL AF4-AF9 inh	RanGTP-Imp inh	Beta apoptosis	Calb FLC	LANA-H2A inh
- CCn1c(CNC(=O)C23CC4CC(CC(C4)C2)C3)nnc1SCC(=O)Nc1nnc(C)s1
  5	-7%	x	2.3	-8.8	-4	1	-9.4
- COc1nc(Cc2ccc(Cl)cc2)nc2ccccc12
  -13	22%	-0.8	-3.8	-0.7	-7	4	1.0
- O=C(Nc1cc(C(F)(F)F)ccc1N1CCCC1)c1cccnc1
  -1	14%	-0.3	x	2.4	x	-15	-5.3
- COCCn1c(SCC(=O)NC(=O)NCc2ccccc2)nc2ccccc2c1=O
  x	-7%	-0.9	-2.3	x	-5	x	-2.8
- CC(C)CCNC(=O)C(c1ccco1)N(C(=O)Cn1nnc2ccccc21)c1ccc2c(c1)OCO2 (stereo not given)
  12	-1%	-0.2	x	u	2	-7	1.6
- O=C(NCc1ccccn1)Nc1ccc(Br)cc1Cl
  -6	x	-0.1	-3.2	6.4	-4	-6	4.5
- Cc1cc(C)nc(CCNC(=O)c2cc(COc3ccccc3)on2)n1
  8	x	0.4	-0.5	5.1	-6	-9	3.1
- COc1ccccc1CC(=O)O/N=C(\N)Cc1cccc2ccccc12
  23	u	0.2	x	2.4	-6	3	-4.9
- CCOC(=O)NC(Nc1ccc(OC)cc1)(C(F)(F)F)C(F)(F)F
  10	22%	0.3	x	4.8	3	-4	5.1
- CCC(=O)N1CCc2cc(S(=O)(=O)N3CCN(C(=O)c4ccco4)CC3)ccc21
  9	4%	0.6	x	-2.7	-2	-3	-5.6
- COC(=O)c1cccc(C23CC4(C2)[C@H](CN(Cc2ccc(-c5ccccc5)cc2)[C@@H]4c2ccccc2)C3c2ccccc2)c1 (stereo not given in full)
  20	u	-0.4	-2.3	0.5	-6	11	6.3
- COc1ccc(/C=N/NC(=O)COc2cc(C)cc(C)c2)cc1COC(C)=O
  -12	-2%	-0.6	x	-2.2	1	-2	-3.5
- CC(C)=C(NC(=O)c1ccccc1)C(=O)NCc1ccccc1
  -5	-6%	1.2	-5.2	-1.6	-4	5	-0.5
- CC(Oc1ccc(Cl)cc1Cl)C(=O)NCCCN1CCOCC1 (stereo not given)
  -13	2%	-0.1	0.1	-0.4	-5	0	-4.2
- CN(C)CCCN(Cc1cc2cc3c(cc2[nH]c1=O)OCO3)C(=S)Nc1cccc(Cl)c1
  20	-2%	0.4	13	0.7	-6	1	-0.4
- O=C(C(c1ccccc1)c1ccccc1)N1CCC(c2nc(-c3ccccc3Cl)no2)CC1
  24	4%	1.0	x	-2.2	-11	-2	-4.2
- Cc1ccc(C)c(CN2CCC(CNC(=O)CCc3nnc4ccc(N5CCC(C)CC5)nn34)CC2)c1
  -20	x	0.1	7.0	0.9	-5	2	3.4
- CC(=O)c1ccc(N2CCN(C(=S)Nc3ccc(Oc4ccccc4)cc3)CC2)cc1
  -2	15%	0.2	-2.6	0.9	1	-21	-2.7

# Complete entries, looked up by structure. Values in the order: T cruzi inh | Vif TR-FRET | A1 inh | MLL AF4-AF9 inh | RanGTP-Imp inh | Beta apoptosis | Calb FLC | LANA-H2A inh
# `CC(Oc1ccc(Cl)cc1Cl)C(=O)NCCCN1CCOCC1` (stereo not given) across the screens: -13 | 2% | -0.1 | 0.1 | -0.4 | -5 | 0 | -4.2
# `CCC(=O)N1CCc2cc(S(=O)(=O)N3CCN(C(=O)c4ccco4)CC3)ccc21` across the screens: 9 | 4% | 0.6 | x | -2.7 | -2 | -3 | -5.6
# `O=C(C(c1ccccc1)c1ccccc1)N1CCC(c2nc(-c3ccccc3Cl)no2)CC1` across the screens: 24 | 4% | 1.0 | x | -2.2 | -11 | -2 | -4.2
